ALR inh = human ALR oxidase inhibition via reduced H2O2. purified ALR, DTT oxidation, H2O2 HRP-luminol luminescence. inhibition, % (test concentration not listed). 3.8% of 290,000 active. P55789;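 active = mean and each replicate at 75% or more; inconclusive = only one of the two met; inactive = neither met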;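 note: stock transfer was 7.5 nL into about 7.5 µL; 0% = neutral wells and 100% = wells with inactivated enzyme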
RanGTP-Imp inh = inhibitors of RanGTP-importin-beta interaction, primary screen, biochemical, FRET, CFP-Ran, YFP-importin-beta, homogeneous; cell-free CFP-Ran/YFP-importin-beta FRET ratio; inhibition, % (concentration not given with the values); 1.1% of 300,000 active; AID 2216;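 active = most replicates above 15%; inconclusive = exactly half above 15%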;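 note: 0% = DMSO wells and 100% = Ran loaded with GDP instead of GTP; wells of about 40 µL received 100 nL stock; the first replicate is given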
HNF4A DNA FP = change in binding of human HNF4 alpha to DNA; AID 1224865; P41235; HNF4a-FITC DNA binding, fluorescence polarization, 1 h; 0.3% of 360,000 active; activity change, % at 10 µM; in the data active = activity change above about 30%, passing the limit was not always enough;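 note: controls were the assay level and a saturating level of protein; the project sought stronger binding though the title names inhibitors; some compounds called inactive have numbers as strong as hits; positive values seem to mean higher polarization but the record does not say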
Target sequence (P41235 whole entry, looked up): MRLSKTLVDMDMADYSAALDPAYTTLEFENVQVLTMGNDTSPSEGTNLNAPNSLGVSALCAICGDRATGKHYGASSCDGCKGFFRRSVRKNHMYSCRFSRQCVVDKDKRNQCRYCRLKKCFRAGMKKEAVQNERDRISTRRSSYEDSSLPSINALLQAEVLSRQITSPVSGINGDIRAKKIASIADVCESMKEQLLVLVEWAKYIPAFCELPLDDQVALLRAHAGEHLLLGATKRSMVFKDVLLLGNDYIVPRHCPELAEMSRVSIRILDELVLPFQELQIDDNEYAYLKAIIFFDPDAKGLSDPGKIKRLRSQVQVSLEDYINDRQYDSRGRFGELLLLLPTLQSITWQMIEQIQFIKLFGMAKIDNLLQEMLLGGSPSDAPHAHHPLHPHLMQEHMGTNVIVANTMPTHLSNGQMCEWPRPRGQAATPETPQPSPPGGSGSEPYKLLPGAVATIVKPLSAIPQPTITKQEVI
Calb FLC = affects C. albicans growth with fluconazole; 0.57% of 300,000 active; AID 1979; growth inhibition, % (concentration not given with the values); C. albicans CaCi-2 (fluconazole-resistant clinical isolate) + fluconazole, Alamar Blue growth, 48 h;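 active = most replicates above 75%; inconclusive = exactly half above 75%; inactive = most below 75%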;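 note: all wells also contain fluconazole at 8 µg/ml as a sub-toxic cotreatment; 0% = median of DMSO wells and 100% = median of geldanamycin control wells; wells of about 8 µL received 7.5 nL stock; the first replicate is given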
Beta2AR agonist = activates human beta-2 adrenergic receptor causing internalization; Am2.2-beta2AR cells, FAP receptor internalization, flow cytometry; reference of the scale not given here; 0.43% of 340,000 active; response, % (no concentration beside the values); P07550;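 active = response above a set limit, near 3 SD of response in nonfluorescent compounds, cut at about 42% in these data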;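 note: stock transfer was 100 nL into about 11 µL; a reference agonist was the positive control; negative values mostly stem from fluorescent compounds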
Target sequence (P07550 whole entry, looked up): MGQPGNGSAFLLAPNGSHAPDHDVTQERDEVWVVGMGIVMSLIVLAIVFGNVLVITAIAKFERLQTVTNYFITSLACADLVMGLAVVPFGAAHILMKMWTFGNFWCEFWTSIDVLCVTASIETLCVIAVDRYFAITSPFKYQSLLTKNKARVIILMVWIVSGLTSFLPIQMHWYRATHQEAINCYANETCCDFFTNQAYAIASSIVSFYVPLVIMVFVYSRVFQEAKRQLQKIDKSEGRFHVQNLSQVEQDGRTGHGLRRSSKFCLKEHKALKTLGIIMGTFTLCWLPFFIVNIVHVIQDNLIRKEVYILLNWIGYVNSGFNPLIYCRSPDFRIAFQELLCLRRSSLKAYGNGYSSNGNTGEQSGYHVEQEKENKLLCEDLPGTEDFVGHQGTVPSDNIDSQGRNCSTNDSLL
LANA-H2B inh = blocks KSHV LANA binding to histone H2A/H2B; inhibition, % (no concentration beside the values); AID 2629; Q9QR71; 0.6% of 320,000 active; cell-free LANA-H2A/H2B peptide, fluorescence polarization; in the data active = inhibition mostly above about 10%, no sharp cut-off; inactive = mostly below about 6.7%;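 note: stock transfer was 7.5 nL into about 10 µL; 0% = median of vehicle wells and 100% = median of positive control wells; one replicate is shown; the record names a cut of 25% in any replicate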
Vif TR-FRET = HIV-1 Vif–A3G interaction blockers – biochemical, TR-FRET, GST-Vif 1-94, biotin-A3G peptide, dose response retest, primary screen (AID 1117319). TR-FRET GST-Vif / biotin-A3G peptide binding; higher % means a stronger effect; test concentration not given here; strong numbers were not always called active. one-dose inhibition, %; IC50 in µM for titrated hits. 0.57% of 260,000 active;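 active = above the screen mean plus three standard deviations and confirmed in dose response; inconclusive = results disagree or hit not tested in dose response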;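 note: Vif residues 1-94 fused to GST binding biotinylated APOBEC3G peptide 110-148; 0% = full assay without inhibitor and 100% = GST in place of GST-Vif; retest series ran down from 100 µM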
* hit, by the source's call; ? = inconclusive; . = not tested or not shown; & = joins results of further samples. This is a subset. The share of hits here may be higher or lower than overall.

SMILES	Beta2AR agonist	Vif TR-FRET	Calb FLC	RanGTP-Imp inh	HNF4A DNA FP	LANA-H2B inh	ALR inh
O=C1NC(=S)N(C2CC2)C(=O)/C1=C/c1ccc2c(c1)CCN2CCCCl	8.5	.	-1.9	0.6	-16.4	-4.4	97.9*
Cc1oc(-c2ccc(F)cc2F)nc1CN1C[C@@H]2C[C@@H](C1)c1cccc(=O)n1C2	-4.1	2.4%	3.8	-2.1	-1.7	-0.2	-3.2
CN(C)P1(N(C)C)=NC(C(F)(F)F)=NC(C(F)(F)F)=N1	8.1	-3.1%	0.0	-4.2	-1.0	7.7	.
COc1cccc(N2C(=O)NC(=O)C3(Cc4cc(C)ccc4N(C)C3)C2=O)c1 (configuration not stated)	2.6	4.4%	3.7	0.2	2.3	-5.5	-7.1
Nc1cc(C(=O)Nc2ccc(Cl)cc2)ccc1N1CC2CC(C1)c1cccc(=O)n1C2 (configuration not stated)	9.9	.	15.8	3.1	-1.1	-1.0	-5.9
COc1cc(OC)c(OC)cc1CNCCc1ccc(OC)c(OC)c1	-2.7	-0.2%	-3.8	3.8	2.8	2.7	-4.2
COC(=O)C1=C(c2ccc(OC)c(OC)c2)C[C@@H]2CC[C@H]1N2C(=O)N1CCCC1	3.7	.	.	.	-0.2	0.1	0.1
Nc1ccccc1C(=O)OC1CSC1	-2.4	0.0%	36.2	-0.3	-2.4	2.2	1.0
Cn1cc(C(=O)c2ccccc2)c2ccccc21	2.7	28.3%	-7.2	-2.6	-1.7	1.2	-1.9
CCOP(=O)(Oc1ccccc1)c1c([N+](=O)[O-])cc(C(F)(F)F)cc1[N+](=O)[O-] (configuration not stated)	0.1	8.1%	7.4	2.2	2.6	2.1	-21.8
O=C(/C=C/c1ccccc1)NCCc1cnc[nH]1	-7.0	19.0%	4.1	4.2	1.7	-1.4	-1.5
CCOc1ccccc1N1C(=O)CC(=O)NC1=O	4.0	1.1%	-0.9	2.4	-1.0	3.9	3.1
CCN(CC)C(=O)c1ccc(NC(=O)Nc2ccccc2F)cc1	2.8	-5.2%	10.5	1.5	-0.9	6.2	-0.1
COC(=O)C1=C(c2ccc3ccccc3c2)C[C@@H]2CC[C@H]1N2C(=O)N1CCC(C)CC1	-0.6	.	.	.	3.1	-3.7	-10.9
c1nc2nc3c(c(N4CCNCC4)n2n1)CCCC3	.	10.2%	0.2	10.4	.	-1.5	-2.5
CNCCc1c[nH]c2ccc(O)cc12	8.6	.	.	-39.0	-1.4	3.2	67.7
COC(=O)CN1C(=O)CN=C(c2ccccc2Cl)c2cc(Br)ccc21	-3.2	.	-3.7	1.1	4.0	-1.5	-1.6
O=c1[nH]c(=S)[nH]c(O)c1/C=C1/C=c2ccccc2=N1	51.7*	.	-4.3	-0.3	1.4	6.3	20.7
COC(=O)C1=C(c2cc3ccccc3o2)C[C@@H]2CC[C@H]1N2C(=O)NCc1cccc2ccccc12	-9.3	.	14.7	2.5	0.6	3.4	-3.8
CCC(=NCCN1CCOCC1)c1c(O)n(-c2ccccc2C)c(=O)[nH]c1=O	3.1	?	15.6	-1.7	5.7	-3.2	-2.8
O=C(NCCCN1CCOCC1)C(Cl)(Cl)Cl	1.6	12.7%	-15.3	0.9	-0.6	2.3	4.0
CC1CC2(O)c3nonc3CCC2N1O (configuration not stated)	7.9	1.4%	-3.4	3.5	-1.6	5.2	-5.4
CCOc1cc2c(cc1OCC)-n1cccc1C(c1ccc(F)cc1)NC2 (configuration not stated)	-5.1	-0.4%	2.3	2.2	-1.7	-3.7	-2.9
O=c1[nH]c(=O)n(-c2ccc(Br)cc2)c(O)c1C=NC(CO)(CO)CO	0.3	-4.6%	1.9	0.3	-1.9	4.4	0.3
Cc1ccc2cc(C=C(C#N)C#N)c(Cl)nc2c1	12.8	.	0.7	50.8*	-8.3	9.6	69.3
CC(C)CCn1c(N)c(C(=O)NCc2cccs2)c2nc3ccccc3nc21	4.1	-2.7%	2.2	50.3*	6.4	-0.7	-3.9
CCOP(=O)(OCC)C(NC(=O)c1cccc(C)c1)C(Cl)(Cl)Cl (configuration not stated)	1.4	.	-7.7	0.9	-2.6	-4.3	-12.1
CN(C)CCNC(=O)c1cccn(Cc2cc(C(F)(F)F)cc(C(F)(F)F)c2)c1=O	-0.4	17.0%	-1.7	0.0	-3.0	-6.5	8.2
CN1C(=O)NC(=O)C(N=Nc2ccc(Cl)cc2)C1=O (configuration not stated)	0.5	-2.2%	.	.	5.5	.	.
CCCOP(=O)(OCCC)C(NC(=O)c1cc(OC)c(OC)c(OC)c1)c1ccccc1 (configuration not stated)	10.1	-3.1%	34.3	1.5	128.8*	-0.1	.
Cn1c(=O)cc(OCC(=O)N2CCC3(CC2)OCCO3)c2ccccc21	-1.6	1.7%	-3.4	-0.9	-1.2	3.9	-11.5
COC(=O)C1=C(c2ccc(F)cc2OCc2ccccc2)C[C@@H]2CC[C@H]1N2C(=O)NCc1ccc(OC)c(OC)c1	4.1	.	.	.	1.1	3.6	-0.5
CCOc1ccc(C(C)=O)cc1Cc1c(O)[nH]c(=S)[nH]c1=O	-2.9	.	-0.3	4.0	-1.4	0.5	5.0
CN1CCCN(C(=O)COc2ccc(Br)cc2)CC1	-3.5	-2.5%	.	.	3.6	1.5	-1.2
O=C1CC(=O)N(c2ccccc2)C(=O)N1c1ccccc1	3.4	1.2%	-12.8	-1.9	1.4	3.5	4.0
c1ccc2c(CN3CCOCC3)c[nH]c2c1	1.4	.	-6.7	-2.2	1.2	-4.0	-3.3

3 structures out of the list, sorted by SMILES length, smallest number first:
SMILES	Beta2AR agonist	Vif TR-FRET	Calb FLC	RanGTP-Imp inh	HNF4A DNA FP	LANA-H2B inh	ALR inh
O=C1CC(=O)N(c2ccccc2)C(=O)N1c1ccccc1	3.4	1.2%	-12.8	-1.9	1.4	3.5	4.0
CCOc1ccc(C(C)=O)cc1Cc1c(O)[nH]c(=S)[nH]c1=O	-2.9	.	-0.3	4.0	-1.4	0.5	5.0
COC(=O)C1=C(c2ccc(F)cc2OCc2ccccc2)C[C@@H]2CC[C@H]1N2C(=O)NCc1ccc(OC)c(OC)c1	4.1	.	.	.	1.1	3.6	-0.5

The listing continues:
SMILES	Beta2AR agonist	Vif TR-FRET	Calb FLC	RanGTP-Imp inh	HNF4A DNA FP	LANA-H2B inh	ALR inh
Cc1[nH]c2ccc(OCc3ccccc3)cc2c1CCN	-1.1	-1.7%	-27.5	-113.7	-1.8	-0.2	11.6
CCC1(OC(=O)c2ccccc2)CC(C)N(C)CC1C (configuration not stated)	0.0	2.7%	-49.0	2.6	5.4	1.3	-3.9
O=[N+]([O-])c1ccc(N2CCNCC2)cc1N1CCCCCC1	-3.0	-6.8%	-1.9	-2.8	2.9	5.9	4.3
CC(NCc1cccc(Cl)c1Cl)C(O)c1ccccc1 (configuration not stated)	-12.0	3.0%	-6.4	-0.8	-3.1	-1.3	-3.4
O=C(NC1CCCCC1)Oc1cc2oc(=O)sc2cc1Cl	4.7	13.5%	0.0	?	1.2	1.2	92.3*
CC(=Nc1ccc(F)cc1)c1c(O)n(C)c(=O)[nH]c1=O	-7.5	-1.8%	1.5	0.7	0.9	-2.3	1.6
Cc1ccccc1N1CCN(C2CCCN(C(=O)Cc3c(C)noc3C)C2)CC1 (configuration not stated)	-2.5	.	-13.5	4.0	-1.7	-1.6	4.4
COc1cccc(CNCCc2ccc3c(c2)OCO3)c1OC	-4.1	.	1.0	1.6	-0.6	-3.7	0.7
O=C1c2ccccc2C(=O)N1Cc1nc2ccccc2c(=O)n1-c1ccc(Br)cn1	-6.1	2.5%	-6.3	-0.5	-1.1	2.6	-15.7
Cc1ccccc1[N+](=O)[O-]	0.5	.	.	.	-1.1	-1.9	6.8
CC(=NCc1cccnc1)c1c(O)n(-c2ccccc2)c(=O)[nH]c1=O	-1.0	6.2%	32.0	-0.5	-1.9	3.1	-4.2
COc1ccc(OP(=O)(Nc2ccccc2)Nc2ccccc2)cc1	-1.3	-0.3%	-3.8	-4.2	4.0	-0.8	5.3
CC(C)(C)c1ccc(C(=O)C2CCCN(Cc3ccon3)C2)cc1 (configuration not stated)	7.1	-2.1%	-25.0	1.7	-2.8	2.2	-5.8
CCOC(=O)c1c(-n2c(C)cc(C=C3C(=O)NC(=S)NC3=O)c2C)sc2c1CCCC2	13.3	?	22.9	-4.4	-5.8	-3.3	?
CCCCOP(=O)(OCCCC)/C(C#N)=C(/C)O	6.1	3.3%	27.2	3.5	-1.3	2.0	-17.9
NC(=O)OCCSc1nnc(-c2cccc(C(N)=S)c2)o1	-9.4	-0.4%	-20.2	-0.3	-1.5	5.1	.
CC1OC(OC2C=C3CCC4C(CCC5(C)C(c6ccc(=O)oc6)CCC45O)C3(C)CC2)C(O)C(OC2OC(CO)C(O)C(O)C2O)C1O (configuration not stated)	-7.0	-2.9%	.	.	-0.1	.	.
O=C(O)CSC(=S)N1CC2CC(C1)c1cccc(=O)n1C2 (configuration not stated)	6.8	0.5%	-5.4	0.6	-0.5	2.3	-5.4
COC(=O)C1=C(c2cc3ccccc3s2)C[C@@H]2CC[C@H]1N2C(=O)NCCCOC(C)C	-5.9	.	-16.5	0.0	8.2	5.4	-6.2
NP(=O)(Oc1ccccc1)c1ccccc1 (configuration not stated)	0.6	-9.6%	.	.	2.5	.	.
CCc1ccc(CN2CCN(Cc3ccc(SC)cc3)CC2)cc1	1.3	.	-15.2	9.1	0.1	0.5	.
CCCCn1c(O)c(C(CC)=NCc2ccc3c(c2)OCO3)c(=O)[nH]c1=O	0.8	2.6%	-0.4	?	2.6	-0.4	1.3
CCC(=O)N1CCN(CCN=Cc2c(O)n(C)c(=O)n(C)c2=O)CC1	6.2	12.8%	-21.7	2.5	-2.4	2.4	-6.8
Oc1ccccc1/C=N/NP(=S)(c1ccccc1)c1ccccc1	5.4	.	13.5	0.9	2.6	-4.9	-0.7
COc1cccc(C(=O)C2CCCN(C3CCOCC3)C2)c1 (configuration not stated)	-0.5	5.9%	-3.0	-2.9	2.0	5.8	-5.3
O=C(Nc1ccccc1)c1cccn(Cc2ccccc2)c1=O	-3.3	-2.5%	0.5	-2.5	0.3	0.0	-3.9
CNC(=S)N(C)CCc1cc2c(c(OC)c1C=C1C(=O)NC(=O)NC1=O)OCO2	-5.1	0.6%	-13.2	1.3	1.1	-5.3	-2.3
Cn1nc(-c2ccc(OCC(=O)N3CCN(Cc4ccccc4)CC3)cc2)c2ccccc2c1=O	3.3	3.5%&-5.0%	38.5&-1.7	-0.8&0.8	0.8	-2.7&-4.5	-19.3&-9.3

High-throughput results as filed in PubChem BioAssay.
